# PINK1 expr mod – A Quantitative High throughput Screen to Identify Chemical Modulators of PINK1 Expression. PINK1 immunofluorescence, high-content cytometry, 24 h. 410,000 tested, 0.2% active. Potency, µM (highest dose often 76.6 µM), for the others: top-dose activation (PINK1 increase), hits mostly activators; active = well fitted activation curve with a large enough effect; inconclusive = small, poorly fitted or top-dose-only effect; inactive = flat fitted curve, though single readings scatter; cell line not stated here;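 also: potency is read from the fitted curve at half-maximal effect; % of control where 0% means no effect; nearly all actives have a fitted effect of over 65% in size; a mitochondrial uncoupler was the plate control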
#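 Stable cell line, 250 cells/well, 12 h attachment; compounds pinned at 5 concentrations, 24 h; CCCP control. Fixed with nuclear dye, primary antibodies 12 h at 10 degrees C, secondary plus cell stain; laser-scanning cytometer read.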
# ClpP mod – qHTS Assay for Activators of ClpP; Potency, µM (doses to about 57.5 µM), without a hit: at the highest dose activity change, negative = active; AID 651965, 2013; purified B. subtilis ClpP, FRET peptide cleavage, 20 min; 340,000 tested, 1.9% active; ATP-dependent Clp protease proteolytic subunit (Bacillus subtilis (strain 168)), P80244; active = well fitted falling curve with a large enough effect; inconclusive = small, poorly fitted or top-dose-only effect; inactive = no such curve, though single readings can be large or run the other way; also: potency is read from the fitted curve at half-maximal effect; the source files actives as falling curves though it sought activators and does not explain the sign; nearly all actives have a fitted effect of over 65% in size; many hits overshoot -100%
# Target sequence (P80244 whole entry, looked up): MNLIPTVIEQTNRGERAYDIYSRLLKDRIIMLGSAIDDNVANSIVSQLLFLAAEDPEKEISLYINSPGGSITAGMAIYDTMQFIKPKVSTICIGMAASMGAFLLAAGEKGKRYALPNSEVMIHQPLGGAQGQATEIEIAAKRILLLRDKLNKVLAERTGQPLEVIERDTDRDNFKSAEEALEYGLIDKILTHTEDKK
#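 FRET quenching reversal measured ClpP activation: 10 microg/mL B. subtilis ClpP at pH 8 with the FRET-FV decapeptide, read at 430 nm after 320 nm excitation. The 20-min minus 0-min signal was scaled between DMSO/no-enzyme wells and ADEP (5.8 microM final).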
# Menin-MLL FL inh – qHTS Assay for Inhibitors Targeting the Menin-MLL Interaction in MLL Related Leukemias: Competition With Fluorescein Labeled MLL-derived Peptide. Fluorescence polarization, fluorescein-MLL peptide displacement from menin. FP activity change, % at 61.4 µM. 290,000 tested, under 10 active; inconclusive = falling polarisation curve, or a change in total fluorescence; inactive = total fluorescence flat and polarisation flat or rising; no compound was filed as active; the % refers to the polarisation; negative = inhibition;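 also: % of control where 0% means no effect; inhibitors lower the polarisation; unlabelled MLL peptide was the positive control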
# Sfp inh – qHTS Assay for Inhibitors of Bacillus subtilis Sfp phosphopantetheinyl transferase (PPTase); Biochemical Sfp PPTase activity, qHTS; Potency, µM, for the others: max response, negative = inhibition, actives largely listed as inhibitors; 310,000 tested, 3.5% active; AID 1490, 2009; active = well fitted inhibition curve with a large enough effect; inconclusive = small, poorly fitted or top-dose-only effect, or another doubt; inactive = no such curve, though single readings can be large or run the other way;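 also: the enzyme is Sfp with the accession as filed and its product quenches rhodamine fluorescence; potency is read from the fitted curve at half-maximal effect; 0% = enzyme reaction without inhibitor and -100% = no enzyme wells; top concentration of the series not given in the record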
#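 Fluorescence-quenching assay with 15 nM Sfp, 5 uM rhodamine-CoA and 12.5 uM BHQ-2-labelled ybbR peptide in pH 7.6 Hepes/MgCl2 buffer. Enzyme was pre-incubated with compound for 15 min at room temperature. Rate was taken from the 30-min fluorescence change (525/598 nm).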
# TRPML1 inh – qHTS for Inhibitors of the Human Mucolipin Transient Receptor Potential 1 (TRPML1); Mucolipin-1 (Homo sapiens), Q9GZU1; TRPML1-inducible cells, Ca2+ dye fluorescence, FDSS; hits give low values; inhibition of EC80 agonist-evoked calcium signal; activity change, negative = inhibition, % (test concentration not listed); 390,000 tested, 0.02% active; AID 624415, 2012; in the data active means activity change below about -50%; inconclusive means about -30% to -50%; inactive means above about -30%;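 also: stimulus is agonist 54-4 at its EC80 concentration; % is scaled to controls: 0 for no effect and ±100 for the full control effect; compound concentration not given in the record; the text of the record puts the active cut at -80%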
# Target sequence (Q9GZU1 whole entry, looked up): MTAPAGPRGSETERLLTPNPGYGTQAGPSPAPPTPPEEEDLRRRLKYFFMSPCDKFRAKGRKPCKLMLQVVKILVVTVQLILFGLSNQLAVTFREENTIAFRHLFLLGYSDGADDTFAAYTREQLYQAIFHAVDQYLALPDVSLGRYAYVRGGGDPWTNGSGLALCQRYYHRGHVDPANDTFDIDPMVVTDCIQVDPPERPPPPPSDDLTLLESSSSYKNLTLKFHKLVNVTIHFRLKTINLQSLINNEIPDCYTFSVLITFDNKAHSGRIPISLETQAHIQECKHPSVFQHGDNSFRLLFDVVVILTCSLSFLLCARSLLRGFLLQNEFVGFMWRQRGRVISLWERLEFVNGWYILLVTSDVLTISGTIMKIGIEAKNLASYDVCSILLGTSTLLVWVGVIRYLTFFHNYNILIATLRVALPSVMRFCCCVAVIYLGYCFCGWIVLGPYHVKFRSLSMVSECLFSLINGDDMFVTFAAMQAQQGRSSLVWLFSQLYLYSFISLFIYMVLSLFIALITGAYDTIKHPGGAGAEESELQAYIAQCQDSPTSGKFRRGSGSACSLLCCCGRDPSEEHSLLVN
#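 TRPML1-DL cells, Tet-induced overnight (~16 h, 37 °C) at 1,500 cells/well, were loaded with Ca8 no-wash dye plus quencher for 45-90 min at room temperature. Compounds were pinned during FDSS kinetic reading; agonist 54-4 at EC80 (4 uM final) then added.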
# TRPV1 PAM – HTS Assay for Compounds that Act as Potentiators of the Vanilloid Receptor 1 | 320,000 tested, 0.02% active | TRPV1-expressing cells, Fluo-8 calcium influx, capsaicin EC20 potentiation; host cell line not named in the record; control for the full effect not named in the record | potentiation, % at 8.33 µM | Transient receptor potential cation channel subfamily V member 1 (Homo sapiens), Q8NER1 | AID 540277, 2011; active means potentiation above 80%; inconclusive means 30% to 80%; inactive means below 30%; also: 0% is about no effect
#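 Cells expressing TRPV1 were dye-loaded with Fluo-8 and read kinetically: 10 s baseline, 3 min after compound (agonist portion), then 2 min after EC20 capsaicin (allosteric enhancer portion). Calcium-bound dye fluorescence at 480/520 nm.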
# TRPML1 agonist – qHTS for Agonists of the Human Mucolipin Transient Receptor Potential 1 (TRPML1); activation, % (test concentration not listed); 410,000 tested, 0.12% active; TRPML1-expressing cells, Ca2+ dye fluorescence, FDSS; host cell line not named in the record; reference of the full effect not given here; in the data active = activation above about 50%; inconclusive = about 30% to 50%; inactive = below about 30%; also: 0% is about no effect; the text of the record puts the active cut at 80%
#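 Kinetic FDSS Ca2+ read in Tet-induced TRPML1-DL cells (ABD Ca8 dye plus quencher, 45-90 min RT loading): baseline, then compound, then 110 s agonist window; EC80 agonist 54-4 at 4uM final added afterwards for a 110 s antagonist window.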
# Starred values were filed as active, the others as inactive; ? = inconclusive; · = no result given; & = joins results of further samples; [ ] = remark or other dose.
# Second line of a record: PINK1 expr mod, ClpP mod, Menin-MLL FL inh, Sfp inh, TRPML1 inh, TRPV1 PAM, TRPML1 agonist
- C[C@H](CO)N1C[C@H](C)[C@@H](CN(C)CC2CCOCC2)Oc2ncc(Br)cc2C1=O
 : -0.6%, 0.1%, ·, ·, 23, ·, 0.2
- Cc1ccc(C)c(-n2cc(CN3CCCN(C=O)CC3)c(-c3ccccc3)n2)c1
 : 0.4%, -3.9%, 0.8, 15%, 9, -15, 0.3
- S=c1[nH]c(-c2ccccc2)cn1-c1ccccc1
 : -2.9%, -29%, 6.5, ?, -14, 23, 3.3
- Cc1nc2scc(-c3cccs3)c2c(=O)o1
 : -1.1%, -0.5%, 3.7, 3%, -4, 5, -0.9
- O=C(CC(C(=O)O)C1CCCO1)NCCc1ccc2c(c1)OCO2 (configuration not stated)
 : -3.4%, -1.1%, -0.1, -14%, -2, 2, -0.3
- C=C1SC(=Nc2ccccc2Cl)N(C(=O)c2sc3ccccc3c2Cl)C1(C)C
 : 3.5%, ·, 4.9, -19%, 22, 0, 0.5
- COc1ccc(CNC(=O)C2CCN(S(=O)(=O)c3ccc4c(c3)CC(C)N4C(C)=O)CC2)cc1 (configuration not stated)
 : -0.8%, 0.1%, -2.7, 6%, -13, -8, -0.7
- COC(=O)c1ccccc1NC(=O)Cn1c(=O)n(CCCC(=O)NCCc2ccc(OC)c(OC)c2)c(=O)c2ccccc21
 : 0.5%, -17%, ·, ·, -1, ·, 1.9
- O=C(CCC(=O)Nc1ccccc1Cl)NNS(=O)(=O)c1ccc(Cl)cc1
 : -0.8%, -0.1%, ·, 23%, -2, 29, 0.6
- CCCOC(=O)/C(C)=N\NC(=O)c1ccco1
 : 2.1%, 0.5%, 3.8, 12%, 32, 1, 0.8
- COc1ccc(N2C(=O)c3ccccc3NC2c2ccc(OC)c(Cn3cc([N+](=O)[O-])cn3)c2)cc1 (configuration not stated)
 : -0.5%, -3.3%, 1.8, 22%, -20, 11, 1.2
- COc1ccc([C@H]2N[C@]3(CCCN(Cc4ccc(F)cc4)C3=O)[C@H]3C(=O)N(C)C(=O)[C@@H]23)cc1
 : 1.1%, -0.9%, ·, ·, 14, ·, -0.3
- Cc1ccc(-n2ncc3c(NCCCc4ccccc4)ncnc32)cc1C
 : 10%, 4.2%, ·, ·, 10, ·, -0.9
- CCOc1ccc(Cn2nnc3c(=O)[nH]c(C4CCN(C(=O)c5ccccc5)CC4)nc32)cc1
 : -1.0%, 104%, ·, ·, 34, ·, 2.3
- CCCCN(C)C(=O)CCCc1c[nH]c2ccccc12
 : -1.1%, -7.5%, 1.7, 5%, 22, -3, 1.9
- CCN(CC)C(=O)CSc1nc2cc3c(cc2c(=O)n1CCCC(=O)NCCc1ccc(OC)c(OC)c1)OCO3
 : 0.2%, ·, -4.9, 8%, 7, -2, -1.0
- Cc1ccc2cc3c(NC(=O)c4ccco4)nn(CC(C)C)c3nc2c1
 : 14%, ?, -1.9, -17%, 8, -10, 0.5
- CCOC(=O)N1CCN(C(=O)c2cn(CC)c3ccc(S(=O)(=O)N4CCCCC4)cc3c2=O)CC1
 : 1.9%, 0.1%, -6.9, 8%, -14, -6, -0.5
- CSc1cccc(N=C2C(=O)Nc3ccccc32)c1
 : 1.1%, ·, -7.1, 5%, 14, 0, 0.3
- C[C@@H]1CN([C@@H](C)CO)C(=O)CCCn2nncc2CO[C@H]1CN(C)C(=O)Nc1ccc(N2CCCCC2)cc1
 : -0.8%, -0.9%, ·, ·, -2, ·, 1.3
- CCc1ccc(C(=O)COC(=O)c2cccs2)cc1
 : 2.9%, -1.7%, 1.3, 4%, -8, -2, -0.1
- CC(C)n1c(O)c(N=NC(=O)C2COc3ccccc3O2)c2ccccc21 (configuration not stated)
 : 2.0%, ·, -1.4, 1%, -3, -1, 1.5
- Cc1ccc(Cl)c(OCC(=O)Nc2ccc3c(c2)OCCO3)c1
 : 2.9%[38.3 µM], 2.2%, -1.1, -5%, 11, -14, 0.1
- O=C(CN1C(=O)NC2(CCCC2)C1=O)NCc1cccc(Cl)c1
 : -1.5%, ·, ·, ·, 12, ·, 0.3
- COc1ccc(C)cc1NC(=O)ON=C1CCCCC1
 : 0.2%, 0.6%, ·, ·, ·, ·, -0.5
- O=C(CNC(=O)/C=C/c1ccccc1)N=Nc1c(O)n(Cc2ccccc2)c2ccccc12
 : ·, ·, 0.3, ?, ·, -3, ·
- COc1cccc(-c2cnc3c(NC(C)=O)cc(-c4cccc(C(=O)N(C)C)c4)cn23)c1
 : 7.4%, -11%, ·, ·, ·, ·, -1.1
- Nc1[nH]c(C(=O)c2ccccc2)c(-c2cccnc2)c1C(=O)NC1CCCCC1
 : 1.5%, -1.4%, ·, ·, ·, ·, -0.2
- Cc1c(N=Cc2cc3c(cc2[N+](=O)[O-])OCO3)cccc1[N+](=O)[O-]
 : 2.1%, -29%, ·, ·, -7, ·, -0.5
- COc1ccccc1CNC(=O)COC(=O)c1cc2ccccc2o1
 : 13%, -4.4%, ·, ·, 17, ·, 1.0
- CC(C)CC(NC(=O)C(NC(=O)C1CCC(=O)N1C(=O)OCc1ccccc1)C(C)C)C(=O)N1CCCC1C(N)=O (configuration not stated)
 : 2.0%, ·, -0.2, 1%, 3, 1, 0.0
- COC(=O)C1=NN(c2ccccc2OC)C2C(=O)N(c3ccccc3OC)C(=O)C12 (configuration not stated)
 : 8.8%, -5.8%, 4.0, 16%, -23, 16, 0.9
- COc1ccc(CCNC(=O)CN2C(=O)COc3ccc(S(=O)(=O)N4CCCCCC4)cc32)cc1OC
 : 0.9%, 1.4%, ·, ·, 5, ·, 1.1
- Cc1ccc(-n2c(C)nnc2SC(C)C(=O)N2CCCC2)cc1 (configuration not stated)
 : 0.7%, ·, -2.2, 13%, -10, 4, -0.3
- Cc1c(C)[n+](=O)c2c(n1[O-])CCCCC2
 : -0.3%, 0.1%, -0.2, 3%, -6, -4, -0.3
- COc1ccccc1-n1cnc2cc(NC(C)=O)ccc21
 : -0.2%, -1.1%, 5.0, 9%, -3, 5, 0.7
- COc1cc(NC(=O)Nc2nnc(N3CCCCCC3)s2)cc(OC)c1
 : 0.2%, 2.1%, ·, ·, -4, ·, -1.2
- COc1cccc(CNCCSc2nnnn2C)c1OCc1ccc(F)cc1
 : -0.5%, -0.8%, ·, ·, 1, ·, -0.3
- Cc1ccc(S(=O)(=O)Nc2ccccc2C(=O)OC(C)C(=O)Nc2ccc3ccccc3c2)cc1[N+](=O)[O-] (configuration not stated)
 : 0.4%, -1.9%, 1.2, 2%, 2, 0, -0.5
- COc1cc(/C=N/NC(=O)c2cc(C3CC3)[nH]n2)ccc1O
 : -0.5%, -4.2%, -4.5, 0%, 27, 11, 0.3
- O=[N+]([O-])c1ccc(Nc2nc(Cl)nc(NCCO)n2)cc1
 : -0.6%, ·, 1.1, 7%, -2, -2, 1.3
- O=C(Nc1ccc2c(c1)OCCO2)C(CCc1ccccc1)N1CCC(Cc2ccccc2)CC1 (configuration not stated)
 : 4.9%, -3.4%, ·, ·, ·, ·, 0.8
- CCOC(=O)c1ccc(CN(Cc2ccccc2)S(=O)(=O)c2ccc(C)cc2)cc1
 : -1.0%, -2.0%, ·, ·, 50, ·, 3.2
- O=c1c2ccccc2nc2n1C(CBr)CS2 (configuration not stated)
 : -2.1%, -0.4%, 4.6, -10%, -8, 27, 1.5
- c1ccc(-c2cc(-c3ccccc3)c3c(n2)-c2ccccc2OC3)cc1
 : 5.3%, -2.7%, ·, ·, 7, ·, 0.3
- Cc1ccc(S(=O)(=O)NC2=NCN(CCc3ccccc3)CN2)cc1
 : -0.6%, 4.2%, 1.9, -8%, -8, -1, 0.6
- O=C(Cc1ccccc1)N1CCN(S(=O)(=O)c2cccc([N+](=O)[O-])c2)CC1
 : 3.8%, 0.1%, -4.1, 22%, -11, 1, -0.9
- Cc1cc(NC(=O)CN2C(=O)NC3(CCCCCC3)C2=O)no1
 : 3.7%, 1.1%, -4.2, -18%, 15, -10, -0.4
- Cc1cccc2c(=O)cc(C)n(CC(=O)N3CCCCC3)c12
 : 0.5%, -7.9%, 12, 6%, -2, -8, -0.1
- CCCC(=O)Nc1nnc(CC(=O)N2CCCC2)s1
 : 1.5%, -3.4%, 5.0, 13%, -3, 26, 0.1
- O=C(CN1C(=O)C2C3CC(C(Br)C3Br)C2C1=O)OCC(=O)c1cccc([N+](=O)[O-])c1 (configuration not stated)
 : 1.4%, ·, -1.2, 10%, 2, 4, 2.1
- O=C(c1ccc(-c2ccccc2)cc1)c1ccc([N+](=O)[O-])cc1
 : ·, ·, 1.1, 13%, ·, 1, ·
- Cc1ccccc1N1CCN(Cc2ccc(Br)o2)CC1
 : 12%, 0.2%, 0.3, -21%, -11, -3, -0.9
- Nc1ccccc1C(=O)NCC1(c2ccccc2)CCCC1
 : -1.7%, 1.3%, -2.8, 16%, -8, 3, 1.5
- O=C(NCCS(=O)CCNC(=O)C(F)(F)F)C(F)(F)F
 : -0.1%, -0.4%, 1.4, 13%, -5, -15, -0.4
- COc1ccc(-c2cc(C(=O)Nc3c(C)n(C)n(-c4ccccc4)c3=O)no2)cc1OC
 : 0.2%&2.6%, 0.7%&0.4%, -1.1, 10%, -24&-10, 1, 0.6&-0.8
- O=C(NNc1cc(N2CCOCC2)nc(N2CCOCC2)n1)c1ccc([N+](=O)[O-])cc1
 : 0.3%, ·, -4.6, -26%, 9, 7, -0.6
- O=C(Cc1ccccc1)NCC(=O)N/N=C/c1cccnc1
 : -1.9%, -4.5%, -2.1, 14%, -1, -3, -0.6
- O=C(NCC(c1cccnc1)N1CCN(c2ccccc2F)CC1)C1CCCCC1 (configuration not stated)
 : 6.7%, -17%, -1.1, 7%, 2, -3, 0.6
- CC(C)N(c1ccccc1)c1ccc(NC(=O)[C@@H]2O[C@H](CO)[C@H](O)[C@H](O)[C@H]2O)cc1
 : 0.5%, -1.3%, ·, ·, 7, ·, 0.0

# High-throughput results (PubChem BioAssay)
